Screening data: PubChem BioAssay, Broad Institute
Ecoli rRNA inh = reduced GFP signal of wild-type E. coli, primary screen, bacterial rRNA inhibitor project, GFP/RFP fluorescence, OD600, single point. E. coli WT GFP vs humanized-ribosome RFP mutants, 24 h; hits give low values; DMSO median 0, no signal -100. GFP signal change (wild-type ribosome), % (test concentration not listed). AID 720706, 2013. actives 1.6% (n = 350,000);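 active = significant combined selectivity score with lowered wild-type GFP, culture density cut under 30%, mutant RFP and density less affected; inactive = any of these conditions unmet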; note: one replicate is shown; some compounds called inactive have numbers as strong as hits
AF4-AF9 inh = inhibitors of AF4 peptide binding to AF9, primary screen, biochemical, AlphaScreen, biotin-AF4 peptide, FLAG-AF9, single point | Protein AF-9 (Homo sapiens), P42568 | inhibition, % at 10 µM | actives 0.47% (n = 350,000);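 active = every replicate reaching a set inhibition limit, whatever the replicate mean, cut at about 25% in these data; inconclusive = mean inhibition reaches that limit but some replicates miss it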;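 note: 0% = plate neutral control median and 100% = total signal loss; the record names both 10 and 1 µM as test concentration; the first replicate is given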
Target sequence (P42568 whole entry, looked up): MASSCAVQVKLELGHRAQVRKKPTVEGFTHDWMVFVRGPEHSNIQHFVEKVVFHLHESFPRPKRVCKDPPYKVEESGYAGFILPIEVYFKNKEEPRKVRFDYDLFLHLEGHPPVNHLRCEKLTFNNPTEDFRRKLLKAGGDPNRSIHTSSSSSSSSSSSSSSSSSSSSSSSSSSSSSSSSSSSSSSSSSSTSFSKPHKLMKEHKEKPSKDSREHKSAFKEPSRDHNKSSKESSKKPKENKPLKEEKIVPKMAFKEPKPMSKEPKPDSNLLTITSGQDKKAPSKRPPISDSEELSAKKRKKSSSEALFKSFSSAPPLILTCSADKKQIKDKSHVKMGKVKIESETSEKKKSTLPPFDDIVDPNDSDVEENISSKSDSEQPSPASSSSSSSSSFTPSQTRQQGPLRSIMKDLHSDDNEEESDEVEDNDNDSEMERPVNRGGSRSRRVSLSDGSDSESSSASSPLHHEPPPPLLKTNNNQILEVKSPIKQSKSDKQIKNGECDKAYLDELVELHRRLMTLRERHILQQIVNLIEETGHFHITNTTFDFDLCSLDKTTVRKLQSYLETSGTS
FGF22 binding = binders of human FGF22 protein, primary screen, FGF22 synaptogenesis inhibitor project, biophysical, thermal shift, single point; Fibroblast growth factor 22 (Homo sapiens), Q9HCT0; recombinant FGF22 thermal shift, SYPRO orange fluorescence; percent of sucrose octasulfate shift, DMSO zero; calls only at 9.99 µM; actives 1.5% (n = 340,000); AID 651658, 2012;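 active = melting point raised past a set limit in the mean and every replicate; inconclusive = no clear call; three in four hits are not shown here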
Target sequence (Q9HCT0 whole entry, looked up): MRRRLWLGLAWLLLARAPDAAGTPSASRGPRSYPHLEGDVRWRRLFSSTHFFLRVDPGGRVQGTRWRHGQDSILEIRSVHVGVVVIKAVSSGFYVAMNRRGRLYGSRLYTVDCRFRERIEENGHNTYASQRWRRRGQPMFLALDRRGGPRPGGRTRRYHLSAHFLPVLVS
Ecoli rRNA inh OD600 = recorded beside Ecoli rRNA inh, whose call it bears; OD600 change, %; measured here: OD600 growth;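 optical density of the mix in the first replicate; 0 = DMSO median and -100 = no signal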
Ecoli rRNA inh RFP = second read-out of Ecoli rRNA inh, no call of its own (marks repeat the call); RFP signal change, %; measured here: RFP humanized mutant strains;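 first replicate; 0 = DMSO median and -100 = no signal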
Starred values were filed as active, the others as inactive; i = inactive; ? = inconclusive.

Sample of the layout (three entries):
SMILES | Ecoli rRNA inh | Ecoli rRNA inh OD600 | Ecoli rRNA inh RFP | AF4-AF9 inh | FGF22 binding
COc1ccccc1-c1ccc2c(c1)O[C@@H](CN(C)Cc1ccc3c(c1)OCO3)[C@@H](C)CN([C@H](C)CO)S2(=O)=O | -2.4 | 3.4 | 5.9 | 2.0 | i
C[C@@H]1CN([C@@H](C)CO)C(=O)c2ccccc2-c2ccccc2CO[C@@H]1CN(C)S(=O)(=O)c1ccccc1C#N | -2.5 | -3.6 | -0.9 | -0.9 | i
C[C@@H]1CN([C@@H](C)CO)C(=O)Cc2cc(NS(C)(=O)=O)ccc2O[C@@H]1CN(C)Cc1ccccc1 | 2.2 | -4.1 | 3.5 | -2.2 | i

The list itself, from the start:
SMILES | Ecoli rRNA inh | Ecoli rRNA inh OD600 | Ecoli rRNA inh RFP | AF4-AF9 inh | FGF22 binding
COc1ccccc1-c1ccc2c(c1)O[C@@H](CN(C)Cc1ccc3c(c1)OCO3)[C@@H](C)CN([C@H](C)CO)S2(=O)=O | -2.4 | 3.4 | 5.9 | 2.0 | i
C[C@@H]1CN([C@@H](C)CO)C(=O)c2ccccc2-c2ccccc2CO[C@@H]1CN(C)S(=O)(=O)c1ccccc1C#N | -2.5 | -3.6 | -0.9 | -0.9 | i
C[C@@H]1CN([C@@H](C)CO)C(=O)Cc2cc(NS(C)(=O)=O)ccc2O[C@@H]1CN(C)Cc1ccccc1 | 2.2 | -4.1 | 3.5 | -2.2 | i
O=C(C[C@H]1CC[C@H]2[C@@H](COC[C@H](O)CN2C(=O)c2ccccc2F)O1)N1CCN(c2ccccc2)CC1 | 1.1 | 8.1 | 2.6 | 2.9 | i
CO[C@@H]1CN(C)C(=O)c2cc(NC(=O)Nc3cc(F)ccc3F)ccc2OC[C@@H](C)N(C(=O)c2cnccn2)C[C@H]1C | -5.0 | -3.3 | 2.0 | -1.5 | i
Cc1noc(C)c1NC(=O)Nc1ccc2c(c1)C(=O)N([C@H](C)CO)C[C@H](C)[C@@H](CN(C)C(=O)NC1CCCCC1)OCCCC[C@@H](C)O2 | 1.5 | 6.0 | 0.7 | -0.2 | i
CCC(=O)Nc1ccc2c(c1)C(=O)N(C)C[C@H](OC)[C@@H](C)CN(CC1CCCCC1)[C@@H](C)CO2 | -1.0 | -3.3 | 0.2 | 1.6 | i
O=C(C[C@@H]1C[C@H]2c3cc(NC(=O)CC4CC4)ccc3O[C@H]2[C@@H](CO)O1)NCc1cccc(F)c1 | 0.5 | -19.2 | 16.0 | 0.1 | i
Cc1ccc(-c2nnc(-c3ccc4ccccc4c3)o2)cc1 | 18.0 | 20.3 | 1.5 | -8.5 | i
CS(=O)(=O)c1ccc(Nc2nc(C(N)COCc3ccccc3)cs2)cc1 (centres undefined) | -0.6 | 2.9 | -2.8 | -2.4 | i
O=C(NC1CCCC1)[C@H]1[C@H](CO)[C@H]2Cn3c(ccc(-c4cccnc4)c3=O)[C@@H]1N2CCc1ccccc1 | -1.7 | -0.9 | -1.9 | -0.3 | i
CCCNC(=O)N1[C@H](C#N)[C@@H](c2ccccc2C2=CCCC2)[C@@H]1CO | 2.9 | -22.6 | 0.6 | -4.2 | i
CCOC(=O)C1(C)CCCN1C(=O)c1ccc(N(C)C)cc1 (centres undefined) | 11.5 | 18.4 | 2.3 | 0.9 | i
COc1ccc2c3c([nH]c2c1)[C@@H](CO)N(CC1CCOCC1)CC31CN(C(=O)C2CCOCC2)C1 | 0.9 | 7.1 | -2.4 | 3.4 | i
O=C(C[C@H]1C[C@H]2c3cc(NC(=O)C4CCOCC4)ccc3O[C@H]2[C@H](CO)O1)NCCc1ccccc1 | 0.2 | 1.4 | 1.1 | -1.4 | i
COc1ccc(-c2ccc3c(c2)O[C@@H](CN(C)C(=O)Nc2ccccc2F)[C@H](C)CN([C@H](C)CO)S3(=O)=O)cc1 | -5.5 | -7.4 | -0.7 | 5.6 | i
C[C@H](NC(=O)C[C@H]1CC[C@H](NC(=O)Cc2ccccn2)[C@@H](CO)O1)c1ccccc1 | 2.8 | 2.1 | -0.4 | 0.7 | i
COc1ccc(NC(=O)Nc2ccc3c(c2)CC(=O)N([C@@H](C)CO)C[C@H](C)[C@@H](CN(C)C(=O)NC2CCCCC2)O3)cc1 | -0.1 | 2.6 | -0.9 | -0.7 | i
Cc1ccccc1C(=O)OCC(=O)Nc1cccc(S(=O)(=O)N2CCCCC2)c1 | 4.5 | -20.9 | -1.4 | 4.0 | i
O=C([C@@H]1[C@@H](CO)[C@@H]2Cn3c(cccc3=O)[C@@H]2N1C(=O)CC1CC1)N1CCc2ccccc2C1 | 1.8 | 6.4 | 0.6 | ? | i
CC(C)NC(=O)N[C@@H]1CC[C@@H](CC(=O)NCCCN(C)C)O[C@@H]1CO | 2.0 | 6.3 | -2.6 | -1.7 | i
COc1ccc(NC(=O)Nc2ccc3c(c2)C(=O)N([C@@H](C)CO)C[C@H](C)[C@H](CN(C)C(=O)Nc2cccc4ccccc24)O3)cc1 | -1.3 | 0.9 | -0.3 | 2.2 | i
CN1C(=O)c2cc(NS(C)(=O)=O)ccc2OC[C@H]2O[C@H](CC(=O)N3CCOCC3)CC[C@H]21 | -1.8 | -7.6 | -1.6 | 0.0 | i
C[C@H](CO)N1C[C@H](C)[C@H](CN(C)C(=O)Nc2cccc3ccccc23)Oc2c(NS(=O)(=O)c3cccs3)cccc2C1=O | -2.9 | -0.7 | 5.0 | -0.2 | i
COc1ccc(NC(=O)Nc2ccc3c(c2)C(=O)N([C@@H](C)CO)C[C@H](C)[C@H](CN(C)C(=O)NC(C)C)OCCCC[C@@H](C)O3)cc1 | 3.7 | 11.5 | -2.5 | -0.7 | i
Cn1nc(C(C)(C)C)cc1C(=O)N1CCCCC1c1cc(C(=O)N2CCOCC2)no1 (centres undefined) | 0.2 | 0.0 | -0.6 | -2.7 | i
C[C@H]1CN([C@@H](C)CO)C(=O)c2cc(NC(=O)CCN3CCOCC3)ccc2O[C@H]1CN(C)Cc1ccccc1 | 3.5 | 2.6 | -2.6 | -0.3 | i
N#Cc1ccc(-c2ccc([C@H]3[C@H]4CN(C(=O)C5CCCCC5)CC(=O)N4[C@H]3CO)cc2)cc1 | -0.5 | -8.2 | -2.1 | 2.9 | i
Cc1ccc(S(=O)(=O)Nc2ccc3c(c2)C(=O)N([C@@H](C)CO)C[C@@H](C)[C@@H](CN(C)C(=O)Nc2ccccc2)OCCCC[C@@H](C)O3)cc1 | 6.9 | 5.3 | 5.4 | -1.3 | i
CCNC(=O)C[C@@H]1CC[C@@H]2[C@H](COC[C@H](O)CN2S(=O)(=O)c2ccc(Oc3ccccc3)cc2)O1 | -6.9 | -9.7 | -2.6 | -1.5 | i
Cc1noc(C)c1S(=O)(=O)Nc1ccc2c(c1)C(=O)N([C@H](C)CO)C[C@H](C)[C@@H](CN(C)CC1CCCCC1)OCCCC[C@H](C)O2 | -0.8 | 2.7 | -0.4 | -0.6 | i
Cc1ccc(S(=O)(=O)N(C)C)cc1NC(=O)CN1C(=O)NC2(CCc3ccccc32)C1=O (centres undefined) | 1.5 | 1.2 | -0.1 | 0.1 | i
C[C@@H]1CN([C@H](C)CO)C(=O)c2cccc(NC(=O)C3CC3)c2O[C@@H]1CN(C)C(=O)Nc1ccc(F)cc1 | -0.2 | 0.3 | -0.5 | -4.7 | i
C[C@H](CO)N1C[C@H](C)[C@@H](CN(C)C(=O)Nc2ccc3c(c2)OCO3)Oc2ccc(NS(C)(=O)=O)cc2CC1=O | 0.1 | 4.6 | -2.6 | -6.1 | i
COc1ccc(NC(=O)N(C)C[C@@H]2Oc3ncc(C#C[C@@H](C)O)cc3C(=O)N([C@H](C)CO)C[C@H]2C)cc1 | 0.7 | 3.7 | -4.0 | -2.2 | i
C[C@@H]1CN([C@@H](C)CO)S(=O)(=O)c2ccc(C#CC3(O)CCCC3)cc2O[C@H]1CN(C)C(=O)Cc1cccnc1 | 0.6 | -6.1 | -6.7 | 1.1 | i
CC=Cc1ccc2n(c1=O)C[C@@H]1[C@@H](CO)[C@H](C(=O)NC3Cc4ccccc4C3)N(CC)[C@H]21 (mixture of isomers) | -4.5 | -9.8 | -3.5 | 3.1 | i
CCOc1ccc(S(=O)(=O)N2CCOCC2)cc1NC(=O)CN1C(=O)NC(C)(C2CC2)C1=O (centres undefined) | 3.5 | 10.6 | -4.0 | 1.2 | i
C[C@H]1CN([C@@H](C)CO)C(=O)c2cc(/C=C/c3ccccc3)cnc2O[C@@H]1CN(C)S(C)(=O)=O | -3.2 | 12.3 | -2.0 | 4.1 | i
COc1cccc(S(=O)(=O)N2CCCCN3[C@H](CO)[C@H](c4ccc(-c5cncnc5)cc4)[C@H]3C2)c1 | -0.5 | -9.6 | -3.8 | -0.7 | i
COc1ccc(CN2[C@H](CO)[C@H]3c4ccccc4N(C(=O)c4ccccc4)C[C@H]32)cc1 | -3.4 | -6.4 | 1.6 | 1.7 | i
CC(C)S(=O)(=O)NC(=O)C1(C)CCN1C(=O)Cc1ccccc1Cl (centres undefined) | 7.1 | 21.1 | 0.6 | -4.4 | i
C[C@@H]1CN([C@H](C)CO)C(=O)Cc2cc(NC(=O)Nc3ccc4c(c3)OCO4)ccc2O[C@@H]1CN(C)Cc1ccncc1 | 0.1 | 4.2 | 0.3 | 2.0 | i
C[C@@H]1CN([C@@H](C)CO)S(=O)(=O)c2ccc(C3=CCCC3)cc2O[C@H]1CN(C)C(=O)C1CCOCC1 | 1.7 | -6.8 | -1.3 | -0.8 | i
Nc1ccc2c(c1)-c1ccc(F)cc1C2=O | -11.8 | -15.8 | 12.2 | 4.7 | i
COc1ccc(NC(=O)N(C)C[C@H]2Oc3c(NS(=O)(=O)c4ccc(Cl)cc4)cccc3C(=O)N([C@H](C)CO)C[C@H]2C)cc1 | -3.5 | -2.5 | -0.5 | 5.9 | i
CCCC(=O)Nc1ccc2c(c1)OC[C@@H](C)N(CCC)C[C@@H](C)[C@@H](OC)CN(C)C2=O | 3.8 | 8.1 | -3.6 | -3.0 | i
O=C(C(=O)N1CCC(CNS(=O)(=O)c2cc(C(F)(F)F)cc(C(F)(F)F)c2)CC1)c1cc2ccccc2o1 | 11.6 | -0.2 | -2.3 | 2.0 | i
COc1ccc(S(=O)(=O)N(C)C[C@@H]2Oc3c(NS(=O)(=O)c4c(C)noc4C)cccc3C(=O)N([C@@H](C)CO)C[C@@H]2C)cc1 | -5.3 | -3.5 | 0.7 | 1.1 | i
CO[C@@H](CN(C)S(=O)(=O)c1cn(C)cn1)[C@@H](C)CN(C(=O)Nc1ccc(F)cc1)[C@@H](C)CO | -1.6 | -2.5 | -1.6 | 2.8 | i
Cc1ccc(S(=O)(=O)N(C)C[C@H]2OCCCC[C@H](C)Oc3ccc(NC(=O)Nc4ccc(C(F)(F)F)cc4)cc3C(=O)N([C@@H](C)CO)C[C@H]2C)cc1 | 4.1 | 2.8 | -2.4 | -7.4 | i
C[C@@H]1CN([C@H](C)CO)C(=O)Cc2cc(NC(=O)C3CCCCC3)ccc2O[C@@H]1CN(C)S(C)(=O)=O | 1.0 | 7.4 | 0.3 | -4.2 | i
CC(C)(O)C#Cc1cccc(-c2nc(C(=O)NCCCN3CCOCC3)cc3c2[C@H](CCO)N(S(=O)C(C)(C)C)C3)c1 (some centres undefined) | 21.4 | 10.8 | 7.8 | 1.4 | i
O=C(C[C@H]1C[C@H]2c3cc(NC(=O)Cc4ccncc4)ccc3O[C@H]2[C@@H](CO)O1)NCc1ccc2c(c1)OCO2 | -0.3 | 5.4 | -1.1 | -1.0 | i
COc1ccc(-c2cnc3c(c2)C(=O)N([C@@H](C)CO)C[C@@H](C)[C@H](CN(C)C)O3)cc1 | 3.5 | 10.6 | -1.6 | -12.9 | i
O=C(NCC1CC1)[C@H]1[C@H](CO)[C@H]2Cn3c(ccc(C4=CCCC4)c3=O)[C@H]2N1Cc1ccccc1F | -1.3 | -5.0 | 3.2 | 1.9 | i
CO[C@@H]1CN(C)C(=O)c2cc(NC(=O)Nc3ccccc3)ccc2OC[C@H](C)N(C(C)=O)C[C@H]1C | -3.3 | -0.6 | 2.5 | 3.8 | i
COC(=O)[C@@]1(Sc2ccc(C)cc2)CC(=O)N[C@@H]1c1ccco1 | 13.9 | 18.6 | 19.7 | -1.5 | i
CCOc1cc2c(cc1O)CCC1C2CCC2(C)C(O)CCC12 (centres undefined) | -50.1 | -75.5 | -13.8 | 2.1 | i
CN(C)C(=O)c1cccc(-c2ccc([C@@H]3[C@H](CO)N4CCCCN(C(=O)C5CCC5)C[C@@H]34)cc2)c1 | 5.7 | 24.4 | -1.7 | -0.7 | i
CC1(C(=O)Nc2ccc3c(c2)OCCO3)CCN1C(=O)C1(c2ccc(Cl)cc2)CCC1 (centres undefined) | -5.6 | -14.6 | -1.7 | 5.9 | i

Not all compounds are listed. The share of hits here may be higher or lower than overall.
